PMP22 txn – PMP22 gene transcription modulation | S16 Pmp22-F2sN Schwann cells (luciferase reporters placed in the Pmp22 gene), FLuc/NLuc coincidence luminescence, 24 h | Potency, µM (doses to about 57.5 µM), without a hit: at the highest dose activity change, negative = inhibition, usual class: inhibitors | actives 2% (n = 43,000) | AID 1508649; active = clear falling dose curves in both reporters; inconclusive = both reporters move, but less clearly or upward; inactive = either reporter flat; the % is the NLuc reporter signal; also: % is scaled to controls: 0 for no effect and ±100 for the full control effect; some results filed as inactive show a strong effect at the top dose
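qHTS, 1536-well. Cells seeded, compounds added by pin tool, 24 h 37C. Nano-Glo reagent 1 (lysis/FLuc), 10 min RT, read; Stop&Glo, 10 min RT, read NLuc.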
HTT prom inh – inhibitors of huntingtin promoter activity; Potency, µM (series often up to 57.5 µM), for inactives: at the highest dose activity change, negative = inhibition, most hits filed as inhibitors; actives 0.93% (n = 48,000); HEK293 HTT promoter firefly luciferase reporter (activity 0% = vehicle and -100% = no light), 24 h; active = well fitted inhibition curve with a large enough effect; inconclusive = small, poorly fitted or top-dose-only effect; inactive = no such curve, though single readings can be large or run the other way; also: nearly all actives have a fitted effect of over 50% in size
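HEK293 Fluc reporter, 2,500 cells/well, 24 h pre-culture; cpds up to 57.5 uM final, 24 h 37 degrees C; Dual-Glo, 10 min RT; normalized vehicle = 0%, zero RLU = -100%.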
* = called active by the depositor; ? = inconclusive; nt = not tested or not shown; [ ] = remark or other dose. Potency is read from the fitted curve at half-maximal effect.

The line under a structure holds: PMP22 txn, HTT prom inh
> Cc1ccc(Cn2c(=O)n(CCc3ccccc3)c(=O)c3sc4ccccc4c32)cc1
 : -4%, 15%
> COC(=O)c1ccccc1NC(=O)c1cc(CN2CCOCC2)on1
 : 1%, 3%
> CC(=O)c1cccc(NC(=O)c2cc3c(s2)-c2c(C)cccc2OC3)c1
 : ?, ?
> COc1cccc(N2CCN(C(=O)c3c4c(nc5ccccc35)C(=O)N(C3CCCCC3)C4)CC2)c1
 : -1%, -9%
> Cc1ccc(-n2nc(C(=O)NC(C)C)c(=O)n(C)c2=O)cc1
 : 4%, -1%
> CCc1c(-c2ccccc2)nc2ccccc2c1C(=O)NC(C)c1ccccc1 (stereo not drawn)
 : ?, ?
> C=CC(=O)N1CCc2ccc(-n3c(=O)ccc4cnc5ccc(-c6cnn(C)c6)cc5c43)cc21
 : nt, ?
> CC(=O)Nc1ccc(NC(=O)Cn2c(=O)ccc3cc(S(=O)(=O)N4CCC(C)CC4)ccc32)cc1
 : -11%, 1%
> COc1ccc(CNc2nc3c(c(=O)n(C)c(=O)n3C)n2Cc2ccccc2Cl)cc1
 : -18%, -13%
> CNC[C@H](O)[C@@H](O)[C@H](O)[C@H](O)CO
 : nt, 6%
> CCOC(=O)Cc1c(C)nc2c(-c3ccc(Cl)cc3)c(C(F)(F)F)nn2c1C
 : -77%, -28%
> Cn1nnc2c(N3CCN(c4ccccc4F)CC3)ncnc21
 : -23%, 6%
> Cc1ccc(Cl)cc1NC(=O)Cc1ccc(-n2c(C)nc3cccnc32)cc1
 : ?, -25%
> Cc1cc(C)c(NC(=O)Cn2c(=O)n(CC(=O)NCc3ccccc3Cl)c(=O)c3sccc32)c(C)c1
 : 20%, 2%
> CCc1ccc(NC(=O)CCCn2nc(C)c3c(C)n(-c4ccccc4)nc3c2=O)cc1
 : 7%, 2%
> CCOc1cc(CNC(=O)NC2COc3ccccc3C2)cc(OCC)c1OCC (stereo not drawn)
 : -34%, -3%
> OCCN1CCN(c2ncnc3c2cnn3-c2cccc(Cl)c2)CC1
 : -10%, 20%
> CN(C)c1ccc(CNC(=O)CN2C(=O)CCn3nc(-c4cn(C)c5ccccc45)cc32)cc1
 : -22%, -4%
> CCOc1ccc(NC(=O)c2ccc3c(SCC(=O)O)c4c(nc3c2)CCC4)cc1
 : 1%, -12%
> CCCCc1nnc(SCc2cc(=O)c3cc(C(=O)OCC)ccc3[nH]2)n1C
 : 4%, 13%
> CCn1cc(S(=O)(=O)c2ccc(OC)cc2)c(=O)c2cc(F)c(N3CCC(C)CC3)cc21
 : 12%, 8%
> Nc1nccc(-c2ccc3noc(-c4ccc(Cl)cc4)c3c2)n1
 : nt, ?
> COc1ccc(Cl)cc1NC(=O)c1cnc(SC)nc1-c1ccccc1
 : ?, -22%
> CCOc1ccc(NC(=O)Cn2c(=O)n(Cc3ccc4c(c3)OCO4)c(=O)c3ccc(C(=O)NC4CCCCC4)cc32)cc1
 : 17µM*, -15%
> Cc1cc(C)c(Cn2c(=O)n(-c3ccccc3Cl)c(=O)c3c(C)c(C(=O)N(C)C)sc32)c(C)c1
 : ?, 7%
> Cc1ccc(NC(=O)C(=O)NCC(c2cccnc2)N2CCN(C)CC2)cc1C (stereo not drawn)
 : -3%, -16%
> Cc1ccc(F)cc1NC(=O)Cn1c(=O)nc(-c2ccccc2F)c2cc(Cl)ccc21
 : -19%, -9%
> COc1cc(OC)c(N(C)C(=O)Nc2cn(CC(C)C)c(=O)c3ccccc23)cc1Cl
 : 11%, -20%
> CCSc1nnnn1-c1cccc(C(=O)O)c1
 : -2%, -1%
> COc1ccc(-n2c(/C=C/c3cccc(C(F)(F)F)c3)nc3ccccc3c2=O)cc1Cl
 : ?, ?

Three of these compounds in a different format.
> CC(=O)Nc1ccc(NC(=O)Cn2c(=O)ccc3cc(S(=O)(=O)N4CCC(C)CC4)ccc32)cc1
  PMP22 txn = -11%
  HTT prom inh = 1%

> COc1ccc(CNc2nc3c(c(=O)n(C)c(=O)n3C)n2Cc2ccccc2Cl)cc1
  PMP22 txn = -18%
  HTT prom inh = -13%

> CNC[C@H](O)[C@@H](O)[C@H](O)[C@H](O)CO
  PMP22 txn = nt
  HTT prom inh = 6%

(listing goes on)
The line under a structure holds: PMP22 txn, HTT prom inh
> COc1ccc(N2CCN(c3csc4ccc(Cl)cc4c3=O)CC2)cc1
 : ?, 5%
> COc1ccc(N2C(=O)CS(=O)(=O)C23C(=O)N(Cc2cccc(F)c2)c2ccccc23)cc1OC (stereo not drawn)
 : ?, -25%
> CC1=C(C(=O)NCCc2ccc(Cl)cc2)C2(CCCCC2)OC1=O
 : -15%, -7%
> CCOC(=O)c1c(C)[nH]c(C)c1S(=O)(=O)NCC(=O)Nc1cccc(SC)c1
 : -6%, -17%
> Cc1ccc2c(c1)C(=O)C(=O)N2Cc1ccc(OC(C)C)cc1
 : 2.3µM*, ?
> Cc1ccc(C2CC(=O)N(Cc3ccccc3F)c3c2c(C)nn3-c2nc(C)cc(C)n2)cc1 (stereo not drawn)
 : ?, -22%
> COc1cccc(-n2c(SCC(=O)Nc3ccc(F)cc3F)nc3c([nH]c4ccccc43)c2=O)c1
 : -2%, -40%
> CSc1ccc(/C=C2/C(C)=C(CC(=O)O)c3cc(F)ccc32)cc1
 : nt, -2%
> O=C(CCC1N=C2c3ccccc3N=C(SCC(=O)Nc3ccccc3F)N2C1=O)NCc1ccco1 (stereo not drawn)
 : -11%, 8%
> COc1ccc(CNC(=O)CCc2c(C)nc3cc(-c4ccc(OC)cc4OC)nn3c2C)cc1
 : 10%, -17%
> Cc1cc(Cl)ccc1NC(=O)CN1C(=O)COc2ccc(S(=O)(=O)N3CCC(C)CC3)cc21
 : ?, -4%
> Cc1cc(C)cc(NC(=O)Cn2nnc(C(=O)NCCc3ccccc3)c2N)c1
 : -1%, -4%
> CC(C)Oc1ccc(CNC(=O)c2ccc(CN3CC(=O)N4CCCCC4C3=O)cc2)cc1 (stereo not drawn)
 : -16%, -13%
> Cc1cc(C)c(NC(=O)Cn2c(=O)n(CCCCC(=O)NCc3ccccc3Cl)c(=O)c3ccccc32)c(C)c1
 : ?, 0%
> CC(C)Nc1ccc(-c2nc(-c3ccco3)no2)cc1[N+](=O)[O-]
 : ?, 1%
> Cc1ccc(-n2ncc(C(=O)NCCCN3CCc4ccccc4C3)c2C2CCN(C(=O)OC(C)(C)C)CC2)cc1C
 : ?, -22%
> O=C(NCc1cccc(F)c1)c1ccc(-n2cnc3cccnc32)cc1
 : -3%, -3%
> CCC1CCc2c(sc(NC(=O)C3c4ccccc4Oc4ccccc43)c2C(=O)OC)C1 (stereo not drawn)
 : ?, -31%
> COc1ccc(/C=C\C(=O)NC2CC(=O)N(c3ccccc3)C2)cc1OC (stereo not drawn)
 : -8%, -3%
> CCOC(=O)c1ccccc1NC(=O)CSc1nc2ccncc2[nH]1
 : -42%, -24%
> CC(C)N(CC[C@H](c1ccccc1)c1cc(CO)ccc1O)C(C)C
 : nt, 0%
> COC(=O)c1ccccc1NC(=O)CCCS(=O)(=O)c1nc(-c2ccccc2OC)cc(C(F)(F)F)n1
 : 10%, 3%
> CCOc1cccc(CC(=O)NCc2ccc3c(c2)CCN3C(=O)c2cccc(C)c2)c1OCC
 : ?, ?
> CCc1nc2ccccc2n1CCCCOc1cccc(C)c1
 : ?, -26%
> CCOC(=O)C1CCN(S(=O)(=O)c2ccc(N3CCCCS3(=O)=O)cc2)CC1
 : 7%, ?
> CC(C)c1c(C(=O)Nc2ccccc2)c(-c2ccccc2)c(-c2ccc(F)cc2)n1CC[C@@H](O)C[C@@H](O)CC(=O)O
 : nt, 18%
> Oc1ccccc1-c1nnco1
 : nt, 13%
> COCCNC(=O)C(=O)Nc1ccc2nc3n(c(=O)c2c1)CCCCC3
 : -10%, 3%
> O=C(Cn1c(=O)n2nc(-c3cccc(F)c3)nc2c2ccccc21)N1CCN(c2ccc(F)cc2)CC1
 : -38%, 12%
> COc1ccc(-n2c(=O)c3ccccc3n(Cc3ccccc3Cl)c2=O)cc1
 : -27%, -13%

Additional structures follow:
The line under a structure holds: PMP22 txn, HTT prom inh
> COCCNC(=O)CSc1nc(-c2ccccc2)[nH]c1-c1ccc(C)cc1
 : 0%, ?
> COc1cccc2c(C)cc3nnc(SCC(=O)Nc4ccc(C)cc4)n3c12
 : -33%, 4%
> COc1ccccc1OCC(=O)NC1CC(=O)N(c2ccc3c(c2)OCCO3)C1 (stereo not drawn)
 : -1%, -11%
> CCC(CC)C(=O)Nc1ccc2nc(SCC(=O)N3CCCC3)sc2c1
 : -6%, -16%
> Cc1ccccc1Nc1c(-c2ccncc2)nc2ccc(Cl)cn12
 : ?, -6%
> CCc1ccc(NC(=O)CN2CCN(Cc3ccccc3)S2(=O)=O)cc1
 : ?, -14%
> CCOc1ccc(-n2nc(CO)c(C(=O)NCc3ccccn3)n2)cc1
 : 1%, -15%
> Cc1cc2n(n1)CCC(=O)N2Cc1ccc(C(=O)Nc2ccc(Br)c(C)c2)cc1
 : ?, -18%
> COCCCNC(=O)CCCN1C(=O)CCn2nc(-c3cn(C)c4ccccc34)cc21
 : -3%, -5%
> Cc1ccc2nc(-c3ccsc3)c(Nc3ccccc3C)n2c1
 : -35%, -16%
> CCCCNC(=O)CCn1c(=O)c2ccccc2n(Cc2cccc(Cl)c2)c1=O
 : -3%, -9%
> COc1ccc(-c2nc3scc(CCNC(=O)c4cc(OC)cc(OC)c4)n3n2)cc1
 : -8%, -10%[11.5 µM]
> Cn1c(=O)c(=O)n(C)c2cc(NS(=O)(=O)c3ccc(Br)cc3)c(Cl)cc21
 : 5%, -16%
> CCOc1ccc(N2CC(c3nc4ccccc4n3CC(C)C)CC2=O)cc1 (stereo not drawn)
 : -45%, 2%
> CCC1CCCCN1CCCNC(=O)c1cc2c(=O)n(CC)c3ccccc3c2s1 (stereo not drawn)
 : ?, -1%
> CC(=O)C1=C(c2ccccc2)N(C(C)=O)n2c(nnc2C2CCCCC2)S1
 : ?, ?
> CCOc1ccc(NC(=O)Cn2c(=O)n(CCCCC(=O)NCc3ccc4c(c3)OCO4)c(=O)c3ccccc32)cc1
 : ?, ?
> Cc1cccc(N2CCN(C(=O)CN3C(=O)COc4ccc(S(=O)(=O)N5CCOCC5)cc43)CC2)c1C
 : -26%, -8%
> CCCOc1ccc(-c2nn(-c3ccccc3)cc2C2NC(=O)NC(C)=C2C(=O)OC)cc1C (stereo not drawn)
 : -30%, -10%
> Cc1ccc(C)c(NC(=O)C(=O)NCCCN2CCOCC2)c1
 : 1%, -12%
> CCc1ccc(CN2CCc3nc(Nc4ccc5c(c4)OCCO5)ncc3C2)cc1
 : 9%, -38%
> C=CCC(CC=C)(CNC(=O)C(=O)Nc1ccc(C(=O)OCC)cc1)c1ccccc1
 : -26%, -17%
> Cc1cccc(CC(=O)Nc2cccc(-c3cn4cccnc4n3)c2)c1
 : ?, 16%
> Brc1ccccc1-n1ncc2c1ncn1nc(Cc3ccccc3)nc21
 : 2%, 37%[activator]
> CCC1CN(C(=O)N2CCC(C(=O)Nc3cc(C)ccc3C)CC2)c2ccccc2O1 (stereo not drawn)
 : -8%, -11%
> CCCCN(C)CC(O)Cn1cc(/C=C/C(=O)c2ccc(Br)cc2)c2ccccc21 (stereo not drawn)
 : ?, -17%
> CCN(c1cccc(C)c1)S(=O)(=O)c1nnc(NC(=O)C2CCCCC2)s1
 : 0%, -5%
> COc1ccc(-c2cn3nc(N4CCCC(C(=O)Nc5cccc(OC)c5)C4)sc3n2)cc1 (stereo not drawn)
 : ?, ?
> CCS(=O)(=O)N1CC(CC#N)(n2cc(-c3ncnc4[nH]ccc34)cn2)C1
 : nt, 34%[activator]
> CCc1cccc(C)c1NC(=O)C(CC)n1nc(C)c2c(C)n(-c3ccccc3)nc2c1=O (stereo not drawn)
 : ?, -28%

The list continues.
SMILES	PMP22 txn	HTT prom inh
Cc1cccc2c1-c1sc(C(=O)N3CCN(c4ccc(F)cc4)CC3)cc1CO2	9%	6%
COc1ccc(C(CC(=O)Nc2ccc(C(C)=O)cc2)N2Cc3ccccc3C2=O)cc1 (stereo not drawn)	?	66%[activator]
COc1ccc(-c2cc(NCc3ccc(C)cc3)n3cnnc3n2)cc1	?	?
COc1cccc(Cn2nnc3c(=O)[nH]c(C4CCCN(C(=O)c5ccccc5Cl)C4)nc32)c1 (stereo not drawn)	2%	-21%
COc1ccccc1CNc1nc(-c2ccco2)nn1C(=O)c1ccccc1[N+](=O)[O-]	?	32%[activator]
COc1ccc2c(CNCc3cccs3)c(C(=O)O)n(Cc3ccc(F)cc3Cl)c2c1	-26%	-23%
Cc1ccccc1C(=O)Nc1ccc2nc(Nc3cccc(C(F)(F)F)c3)cc(C)c2c1	?	?
CCCCNC(=O)c1nn(C)c2c1CSc1ccccc1-2	-6%	8%
COc1ccc(S(=O)(=O)N2CCN(c3ccc(Cl)c(Cl)c3)CC2)c2ccccc12	23%	-13%
CCOc1ccc(OCC)c(NC(=O)CCc2nc3cccnc3n2-c2ccccc2)c1	5%	-20%

An excerpt of these results, as labelled records.
Cc1ccccc1C(=O)Nc1ccc2nc(Nc3cccc(C(F)(F)F)c3)cc(C)c2c1
  PMP22 txn: ? | HTT prom inh: ?
CCCCNC(=O)c1nn(C)c2c1CSc1ccccc1-2
  PMP22 txn: -6% | HTT prom inh: 8%
COc1ccc(S(=O)(=O)N2CCN(c3ccc(Cl)c(Cl)c3)CC2)c2ccccc12
  PMP22 txn: 23% | HTT prom inh: -13%
CCOc1ccc(OCC)c(NC(=O)CCc2nc3cccnc3n2-c2ccccc2)c1
  PMP22 txn: 5% | HTT prom inh: -20%
